Compound activity deposited in PubChem by National Center for Advancing Translational Sciences (NCATS).
GLP1R cytotox: cytotoxicity counter-screen for GLP-1 receptor inverse agonists | HEK293 cAMP-luciferase reporter cells, luminescence, 24 h | Potency, µM (series often up to 38.3 µM), for the others: at the highest dose activity change, negative = inhibition, usual class: inhibitors | 410,000 tested, 0.13% active;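 note: loss of luciferase light is scored as toxicity; potency is the fitted concentration of half-maximal effect; % is set by controls: 0 for no effect and ±100 for the full control effect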
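A 23 nL compound transfer followed 12 hours of cell culture at 37 deg C; exposure then lasted 24 hr. Luciferase assay detection reagent was dispensed and plates read for luminescence after a 12 min room-temperature wait.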
MCF10A rerep: DNA re-replication induction in MCF 10a cells; MCF 10A DNA re-replication, Hoechst nuclear intensity, 48 h; Potency, µM (top dose mostly 46.1 µM), for inactives: top-dose activity, positive = re-replication, hits mostly activators; 350,000 tested, 2.9% active; note: potency is the fitted concentration of half-maximal effect; % of control where 0% means no effect; nearly all actives have a fitted effect of over 50% in size
KB-3-1 tox: kills parental KB-3-1 adenocarcinoma cells; AID 1347075; KB-3-1 viability, CellTiter-Glo ATP luminescence, 72 h; Potency, µM (highest dose often 46.1 µM), without a hit: at the highest dose activity change, negative = cytotoxic, most hits filed as cytotoxic; 400,000 tested, 1.4% active; note: potency is the fitted concentration of half-maximal effect; % is set by controls: 0 for no effect and ±100 for the full control effect; nearly all actives have a fitted effect of over 60% in size
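Parental KB-3-1 adenocarcinoma cells in phenol-red-free DMEM with 10% FBS were pin-treated with compounds at several concentrations, incubated 72 h at 37 °C, and viability read by CellTiter-Glo luminescence; concentration-effect curves were fitted after normalization.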
IL1B secr inh: inflammasome signaling inhibition, IL-1 beta readout; THP-1 LPS/ATP IL-1B secretion, AlphaLISA, 16 h; active compounds read low; activity change, % at 57.5 µM; 360,000 tested, 4.7% active; AID 743279; in the data active = activity change below about -50%; inconclusive = mostly about -30% to -49%; note: % is set by controls: 0 for no effect and ±100 for the full control effect
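Secreted IL-1B measured by AlphaLISA bead assay after 16 h compound exposure of THP-1 cells; compounds (final up to 57.5 uM) added 1 h before LPS (250 ng/mL) and ATP (1.25 mM) stimulation; lower signal means less secretion.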
KB-V1 MDR tox: KB-V1 MDR subline cytotoxicity; AID 1347076; Potency, µM (highest dose often 46.1 µM), without a hit: top-dose activity change, negative = cytotoxicity, hits mostly cytotoxic; KB-V1 MDR cells viability, CellTiter-Glo, 72 h; 400,000 tested, 3.4% active; note: potency is the fitted concentration of half-maximal effect; % is set by controls: 0 for no effect and ±100 for the full control effect; nearly all actives have a fitted effect of over 60% in size
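Potencies derive from concentration-effect curves fitted to normalized luminescence (CellTiter-Glo) of KB-V1 cells treated for 72 h at 37 degrees C in phenol-red-free DMEM containing 10% FBS.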
DRD3 agonist: activates the human D3 dopamine receptor. P35462. D3R DiscoveRx beta-arrestin cells, luminescence, 90 min. max activation, %. 410,000 tested, 0.58% active; in the data active = max activation above about 30%; note: 0% is about no effect; mostly tested at two doses, the higher about 12 µM
Target sequence (P35462 whole entry, looked up): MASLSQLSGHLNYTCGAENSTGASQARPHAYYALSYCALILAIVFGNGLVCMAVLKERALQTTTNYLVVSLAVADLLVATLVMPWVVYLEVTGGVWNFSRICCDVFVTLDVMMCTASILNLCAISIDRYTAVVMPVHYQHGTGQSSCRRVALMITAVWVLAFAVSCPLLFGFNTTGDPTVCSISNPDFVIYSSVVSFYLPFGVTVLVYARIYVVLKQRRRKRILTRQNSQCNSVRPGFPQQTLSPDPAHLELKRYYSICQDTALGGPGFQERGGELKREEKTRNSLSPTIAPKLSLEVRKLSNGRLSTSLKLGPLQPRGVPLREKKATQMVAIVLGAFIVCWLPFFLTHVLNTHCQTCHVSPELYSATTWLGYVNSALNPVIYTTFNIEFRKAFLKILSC
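Agonist-mode cell screen: cells plated at 1500/well and incubated overnight at 37 °C, then exposed to library compounds for 90 min at 37 °C. Detection reagent was added for 30–60 min at room temperature, and luminescence was read.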
SW480 rereplic: induces DNA re-replication in SW480 colon adenocarcinoma cells; Potency, µM (highest dose often 46.1 µM), for the others: at the top dose re-replication activation, hits mostly activators; SW480 DNA re-replication, Hoechst DNA content imaging, 48 h; 340,000 tested, 1.8% active; AID 624297; note: potency is the fitted concentration of half-maximal effect; % of control where 0% means no effect; nearly all actives have a fitted effect of over 55% in size
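250 cells/well; 23 nL cpd via pin tool; 48 hr, 37 C, 5% CO2; Hoechst 40 min; imager read of total nuclear intensity, ex 405/em 500-530 nm.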
An asterisk follows results filed as active; ? = inconclusive; / = no result given; & = joins results of further samples; [ ] = remark or other dose. Unless noted, calls come from the whole dose curve; as a rule, active = well fitted curve in the direction sought with a large enough effect; inconclusive = small, poorly fitted or top-dose-only effect, or another doubt; inactive = no such curve, though single readings can be large; an effect the other way counts as inactive or inconclusive.

The first 12 entries as a preview:
Assay codes – A = GLP1R cytotox; B = MCF10A rerep; C = KB-3-1 tox; D = IL1B secr inh; E = KB-V1 MDR tox; F = DRD3 agonist; G = SW480 rereplic
1	Cc1ccc(NC(=O)C2CCCN2S(=O)(=O)c2cccc3cccnc23)c(C)c1 (stereo unspecified)
  A: -8%&-1%; B: 11%; C: -6%; D: 31; E: -1%; F: 5&-14; G: -17%
2	O=c1c(-c2ccc(O)cc2)coc2cc(O)ccc12
  A: 10%; B: -42%[inhibitor]; C: 0%; D: 5; E: -2%; F: -35; G: 29%
3	CCOc1ccccc1N
  A: 3%; B: -20%; C: 0%; D: 31; E: 16%; F: 12; G: -36%[inhibitor]
4	CCN1C(=O)NC(c2ccccc2)C1=O (stereo unspecified)
  A: -4%; B: -1%; C: 0%; D: 20; E: 13%; F: 13&10; G: -80%[inhibitor]
5	CC(C)c1ccccc1
  A: 0%; B: -15%; C: 0%; D: -2; E: 7%; F: 13; G: 14%
6	COc1ccc(-c2cn[nH]c2-c2ccc(OC)cc2)cc1
  A: -16%; B: ?; C: -10%; D: /; E: 6%; F: -6; G: 4%
7	CCOC(=O)[C@H](CCc1ccccc1)N[C@@H](C)C(=O)N1C(C(=O)O)C[C@@H]2CCC[C@@H]21 (stereo partly specified)
  A: 5%; B: 2%; C: 0%; D: 21; E: -10%; F: 7; G: 0%
8	Cc1ccc(C(=O)O)cc1[N+](=O)[O-]
  A: -1%; B: -18%; C: 0%; D: 29; E: -1%; F: 10; G: -24%
9	O=C(O)CCSSCCC(=O)O
  A: 2%; B: -13%; C: 0%; D: -5; E: 19%; F: 20; G: 0%
10	Nc1cc2c3ccccc3ccc2c2ccccc12
  A: 1%; B: ?; C: ?; D: -5; E: -17%; F: 9; G: 21µM*
11	Nc1nc2ccccc2[nH]1
  A: -9%; B: -1%; C: 7%; D: -3; E: 9%; F: 8; G: 6%
12	CC(=O)Nc1ccc(N)cc1
  A: -2%; B: -2%; C: 0%; D: 8; E: 6%; F: -22; G: -9%

The list itself (from the top)
Assay codes – A = GLP1R cytotox; B = MCF10A rerep; C = KB-3-1 tox; D = IL1B secr inh; E = KB-V1 MDR tox; F = DRD3 agonist; G = SW480 rereplic
1	Cc1ccc(NC(=O)C2CCCN2S(=O)(=O)c2cccc3cccnc23)c(C)c1 (stereo unspecified)
  A: -8%&-1%; B: 11%; C: -6%; D: 31; E: -1%; F: 5&-14; G: -17%
2	O=c1c(-c2ccc(O)cc2)coc2cc(O)ccc12
  A: 10%; B: -42%[inhibitor]; C: 0%; D: 5; E: -2%; F: -35; G: 29%
3	CCOc1ccccc1N
  A: 3%; B: -20%; C: 0%; D: 31; E: 16%; F: 12; G: -36%[inhibitor]
4	CCN1C(=O)NC(c2ccccc2)C1=O (stereo unspecified)
  A: -4%; B: -1%; C: 0%; D: 20; E: 13%; F: 13&10; G: -80%[inhibitor]
5	CC(C)c1ccccc1
  A: 0%; B: -15%; C: 0%; D: -2; E: 7%; F: 13; G: 14%
6	COc1ccc(-c2cn[nH]c2-c2ccc(OC)cc2)cc1
  A: -16%; B: ?; C: -10%; D: /; E: 6%; F: -6; G: 4%
7	CCOC(=O)[C@H](CCc1ccccc1)N[C@@H](C)C(=O)N1C(C(=O)O)C[C@@H]2CCC[C@@H]21 (stereo partly specified)
  A: 5%; B: 2%; C: 0%; D: 21; E: -10%; F: 7; G: 0%
8	Cc1ccc(C(=O)O)cc1[N+](=O)[O-]
  A: -1%; B: -18%; C: 0%; D: 29; E: -1%; F: 10; G: -24%
9	O=C(O)CCSSCCC(=O)O
  A: 2%; B: -13%; C: 0%; D: -5; E: 19%; F: 20; G: 0%
10	Nc1cc2c3ccccc3ccc2c2ccccc12
  A: 1%; B: ?; C: ?; D: -5; E: -17%; F: 9; G: 21µM*
11	Nc1nc2ccccc2[nH]1
  A: -9%; B: -1%; C: 7%; D: -3; E: 9%; F: 8; G: 6%
12	CC(=O)Nc1ccc(N)cc1
  A: -2%; B: -2%; C: 0%; D: 8; E: 6%; F: -22; G: -9%
13	O=C(N/N=C/c1c[nH]c2ccc(Br)cc12)c1ccc2c(c1)OCO2
  A: 6%[7.66 µM]; B: ?; C: ?; D: -9; E: ?; F: -4; G: 12%
14	Cc1ccc(-c2nnc(N3CCN(C(=O)c4ccco4)CC3)c3ccccc23)cc1
  A: -19%; B: -3%; C: -24%; D: -63*; E: ?; F: -1; G: 3%
15	O=C1c2cccc(O)c2C(=O)c2c(O)cc(CO)cc21
  A: 0%; B: -7%; C: 0%; D: -19; E: 0%; F: 10; G: -8%
16	COc1ccc(C(=O)NN)cc1
  A: 6%; B: 0%; C: -7%; D: -2; E: 3%; F: 1; G: -22%
17	CN(C)c1ccc(O)c2c1CC1CC3[C@@H](N(C)C)C(=O)C(C(N)=O)C(=O)[C@]3(O)C(=O)C1C2=O (stereo partly specified)
  A: -14%; B: -4%; C: 0%; D: -20; E: -18%; F: 30; G: 4%
18	CN(C)Cc1cc(C(C)(C)C)c(O)c(C(C)(C)C)c1
  A: -1%; B: -19%; C: 1%; D: -5; E: 25%; F: -4; G: -7%
19	Cc1cccc(C)c1NC(=O)CN1CCNCC1
  A: -14%; B: -4%; C: 22%; D: 5; E: 0%; F: -3; G: -3%
20	NS(=O)(=O)c1cc2c(cc1Cl)NCNS2(=O)=O
  A: -5%; B: -3%; C: ?; D: 11; E: 11%&21%; F: 12&6; G: -28%
21	c1ccc2scnc2c1
  A: 4%; B: -4%; C: 0%; D: 3; E: 14%; F: 11; G: ?
22	OCc1ccccc1O[C@@H]1O[C@H](CO)[C@@H](O)[C@H](O)[C@H]1O
  A: 1%; B: -3%; C: 0%; D: 5; E: -12%; F: -7; G: -3%
23	CCN(C(=O)N(CC)c1ccccc1)c1ccccc1
  A: -1%; B: ?; C: 0%; D: 17; E: 15%; F: 14; G: -2%
24	COc1cc(C(=O)O)ccc1O
  A: -12%; B: 11%; C: 5%; D: 8; E: 22%; F: 0; G: -13%
25	Cc1occc(=O)c1O
  A: 1%; B: 4%; C: 0%; D: 4; E: 15%; F: 1; G: 5%
26	CCOC(=O)[C@H](CCc1ccccc1)N[C@@H](C)C(=O)N1[C@H](C(=O)O)C[C@H]2CCC[C@@H]21
  A: /; B: 2%; C: /; D: /; E: /; F: /; G: -3%
27	CC(CN1c2ccccc2Sc2ccccc21)N(C)C (stereo unspecified)
  A: 4%; B: 10%; C: 0%; D: ?; E: ?; F: -79&-19; G: 22%

The list is partial; count on the stated rates, not on these rows.
